PABP polyA inh: PABP-poly(A) binding inhibition. AID 2014. inhibition, % at 35 µM. PABP-poly(A) RNA binding, fluorescence polarization. P11940. actives 1% (n = 290,000);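 active = 50% or more with normal probe brightness, or confirmed in later tests; inconclusive = above 50% with abnormal brightness, or retests that disagree; inactive = below 50% or failed in later tests; about a fifth of its hits are not listed in these tables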;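 note: calls also rest on retests at 20 µM and on dose response follow-up; controls were probe without protein and protein plus probe with vehicle; some compounds called inactive have numbers as strong as hits; many hits fall short of the cut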
Target sequence (P11940 whole entry, looked up): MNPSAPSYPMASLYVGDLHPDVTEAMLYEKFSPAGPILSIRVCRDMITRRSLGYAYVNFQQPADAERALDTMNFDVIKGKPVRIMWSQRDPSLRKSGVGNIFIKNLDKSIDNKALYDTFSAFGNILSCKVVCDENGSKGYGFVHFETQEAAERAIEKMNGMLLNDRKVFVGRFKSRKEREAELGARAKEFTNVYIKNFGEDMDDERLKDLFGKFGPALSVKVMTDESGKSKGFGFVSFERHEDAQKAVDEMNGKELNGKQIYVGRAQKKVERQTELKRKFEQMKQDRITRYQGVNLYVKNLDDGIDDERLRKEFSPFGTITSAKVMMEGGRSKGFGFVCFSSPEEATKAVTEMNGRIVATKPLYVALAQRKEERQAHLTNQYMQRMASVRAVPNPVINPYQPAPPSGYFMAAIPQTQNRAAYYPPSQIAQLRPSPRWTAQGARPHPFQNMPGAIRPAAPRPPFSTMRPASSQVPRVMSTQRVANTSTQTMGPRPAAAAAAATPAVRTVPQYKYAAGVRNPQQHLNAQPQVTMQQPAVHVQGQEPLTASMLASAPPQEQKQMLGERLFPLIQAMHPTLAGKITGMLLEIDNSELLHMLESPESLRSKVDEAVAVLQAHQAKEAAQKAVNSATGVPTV
eIF4H FP inh: inhibitors of RNA binding by human eIF4H; eIF4H fluorescence polarization binding assay; AID 2012; Q15056; inhibition, % at 35 µM; actives 0.94% (n = 290,000);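 active = 50% or more with normal probe brightness, or confirmed in later tests; inconclusive = above 50% with abnormal brightness, or retests that disagree; inactive = below 50% or failed in later tests; about a fifth of its hits are not listed in these tables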;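 note: calls also rest on retests at 20 µM and on dose response follow-up; 0% = protein and probe with vehicle and 100% = probe without protein; strong numbers were not always called active; many hits fall short of the cut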
CSC inhib: blocks cancer stem cells | cancer stem cell-like cells viability, luminescence | inhibition, % at 7.5 µM | actives 1.1% (n = 300,000) | AID 2717;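 active = mean at 75% or more and at least half the replicates too; inconclusive = mean and replicates disagree; tested in HMLE shEcad cells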;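 note: 0% = median of negative and 100% = median of positive control wells; the first replicate is given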
HIV Env fusion: inhibitors of HIV Env-mediated cell fusion | HeLa-JRFL Env/CEM21 cell fusion, luciferase | inhibition, % at 12.3 µM | actives 1.1% (n = 360,000) | AID 651610;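 active = mean replicate inhibition score of at least 50 and every replicate individually at or above 50; inconclusive = only one of the two criteria met; inactive = mean below 50 and not all replicates reaching 50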;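 note: 0% = plate neutral controls and 100% = maraviroc near 300 nM; one replicate is shown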
UUG fidelity: alters start codon recognition fidelity in yeast; S. cerevisiae UUG-firefly luciferase reporter, luminescence/redox ratio; activity score, % at 18.7 µM; actives 0.13% (n = 350,000); AID 602363;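 active = replicate mean at a twofold rise or more, about +100% in these data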;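 note: firefly luciferase made from a UUG start codon reports start codon fidelity; reporter light over untreated wells divided by growth signal over untreated wells; some hits fall short of that in this replicate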
Rce1 inhib: blocks yeast Ras-converting enzyme. yeast membranes, quenched prenylated peptide cleavage fluorescence. actives 0.27% (n = 290,000). calls only. Q03530;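 active = fall in fluorescence gain of 50% or more versus controls, with final raw signal at or below 3038400; inconclusive = same 50% fall but final raw signal above 3038400; inactive = fall in fluorescence gain under 50%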;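 note: plate controls were neutral control wells for no effect and wells lacking membranes for full effect; tested at 10 µM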
Target sequence (Q03530 whole entry, looked up): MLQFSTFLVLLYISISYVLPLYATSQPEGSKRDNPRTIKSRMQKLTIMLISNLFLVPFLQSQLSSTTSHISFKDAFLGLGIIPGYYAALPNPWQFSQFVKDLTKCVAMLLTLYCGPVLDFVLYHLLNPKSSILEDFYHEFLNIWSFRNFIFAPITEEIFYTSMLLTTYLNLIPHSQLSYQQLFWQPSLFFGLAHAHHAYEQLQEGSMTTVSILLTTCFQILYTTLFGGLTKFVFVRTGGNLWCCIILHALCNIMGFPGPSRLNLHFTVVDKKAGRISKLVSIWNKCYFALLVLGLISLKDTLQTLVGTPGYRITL
MT1-MMP act inh: inhibitors of human MT1-MMP activation | HT1080 RFP-PRO-GFP cells, GFP/RFP ratio fluorescence, overnight; percent of plate control window, DMSO zero | actives 0.061% (n = 360,000) | P50281 | GFP/RFP ratio change, % at 20 µM;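 active = GFP/RFP ratio change of at least 30% with cell ATP level not reduced by more than half and red fluorescence within 50% of control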; note: strong numbers were not always called active
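Assay system: HT1080 RFP-PRO-GFP cells. Benchmarks: DMSO vehicle wells and RFP-L50D-GFP reporter cell wells. Times: overnight cell settling, then overnight compound exposure, 37 °C, 5% CO2. Compound: 20 µM single dose, 1% DMSO. Read-out basis: GFP/RFP fluorescence ratio.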
eIF4H FP inh retest: further read-out of eIF4H FP inh, marked with its call; inhibition, %; compound at 20 µM; confirmation average;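 mean of two retest wells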
PABP polyA inh retest: second read-out of PABP polyA inh, no call of its own (marks repeat the call); inhibition, %; compound at 20 µM; confirmation repeats;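 mean of two retest wells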
MT1-MMP act inh RFP: also measured in MT1-MMP act inh; calls as there; RFP signal change, %; measured here: RFP expression control read;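 0 = vehicle wells; hits needed this value within 50% of zero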
The depositor's hits bear a star; i = inactive; ? = inconclusive; nt = not tested or not shown.

SMILES	PABP polyA inh	eIF4H FP inh	CSC inhib	HIV Env fusion	UUG fidelity	Rce1 inhib	MT1-MMP act inh	MT1-MMP act inh RFP	others
OC1CCN(Cc2ccc3ccccc3c2)CC1	6	10	-5	-4	-5	i	-1	2
CC(C)Oc1ccc(S(=O)(=O)N2CCOCC2)cc1NC(=O)c1cccc(S(=O)(=O)N2CCCC2)c1	nt	nt	nt	38	-23	nt	3	0
O=C(NC1CCCC1)C1CC(=O)N(C2CCCCCCC2)C1 (configuration not stated)	0	-5	-16	nt	-2	i	2	-4
O=C(CCS(=O)(=O)c1ccc(Br)cc1)NC1CCCCCC1	10	64*	16	-41	-20	i	3	3	eIF4H FP inh retest=77*;PABP polyA inh retest=36
Oc1ccc(C2Nc3cccc4cccc(c34)N2)c(O)c1	41*	89*	1	nt	nt	i	18	8	eIF4H FP inh retest=105*;PABP polyA inh retest=66*
O=C1OCCN/C1=C\C(=O)c1ccccc1	9	0	-9	-44	5	nt	-1	4
CN(C)N=Nc1nc2c([nH]1)c(=O)n(C)c(=O)n2C	-9	-3	-6	-7	-12	i	4	4
CC1CCCCN1S(=O)(=O)c1ccc(C(=O)Nc2ccccc2-c2nc3ccccc3[nH]2)cc1 (configuration not stated)	10	-8	47	nt	-15	i	-4	-14
O=C(NCCS(=O)(=O)N1CCN(c2ccc(F)cc2)CC1)c1ccc(Br)o1	7	2	-21	-5	-15	i	-10	-3
CSc1nc(O)c(C(c2ccccc2Cl)c2c(O)nc(SC)[nH]c2=O)c(=O)[nH]1	nt	nt	2	13	nt	i	2	1
CN(C(=O)c1cccc(NC(=O)Cc2ccc(NC(=O)C3CCCN(S(=O)(=O)c4cccc([N+](=O)[O-])c4)C3)cc2)c1)C1CCCCC1 (configuration not stated)	nt	nt	nt	-17	-18	nt	4	-12
Cc1ccc(-n2ncc3ccccc3c2=O)cc1Cl	-4	1	-2	-59	nt	i	1	1
CCOC(=O)C1C(=O)C(=O)N(Cc2ccccc2)C1C(=O)OCC (configuration not stated)	nt	nt	nt	-16	-35	nt	5	0
COCCNc1nnc(SCC(=O)Nc2cc(-c3ccccc3)nn2-c2ccccc2)s1	5	-8	-6	21	nt	i	-1	-3
Cc1nnc2ccc(-c3ccc(NS(=O)(=O)c4ccccc4)cc3)nn12	nt	nt	nt	-75	-25	nt	15	11
CN(CC(=O)Nc1ccc(F)cc1)CC(=O)NC1CCCCC1	nt	nt	-10	nt	9	nt	2	-1
Cc1ccccc1C(=O)OCc1cnc(Cl)s1	-6	-5	-6	8	-15	i	4	6
CCCS(=O)(=O)NC(=O)C1(C)CCCN(C(=O)c2c(OC)cccc2OC)C1 (configuration not stated)	nt	nt	nt	-36	-15	nt	6	-1
COc1ccc(N2CCN(S(=O)(=O)c3cn(C)c(=O)n(C)c3=O)CC2)cc1	-8	-4	-4	-9	nt	i	-3	-4
CCc1ccc2[nH]c(=O)c(CN(Cc3ccccc3)C(=O)Nc3ccccc3OC)cc2c1	0	7	18	22	-13	i	-37	-26
CCCn1c(NC(=O)CCNC(=O)c2ccccc2Cl)nc2ccccc21	nt	nt	nt	17	-3	nt	-1	-3
COCCN1CCN(Cc2cn[nH]c2-c2cc3ccccc3o2)CC1	-11	-2	-4	-24	6	i	0	7
O=C(CCC(=O)c1cccs1)OCC(=O)N1CCN(S(=O)(=O)c2ccccc2)CC1	12	0	-8	-99	-12	i	0	1
O=C(COc1ccccc1Cl)NCCCNC(=O)c1ccccn1	4	-11	-1	-5	-14	i	0	1
CC(C)(C)NC(=O)C(c1cccs1)N(C(=O)c1csnn1)c1ccccc1F (configuration not stated)	-4	-4	-12	11	nt	i	-1	4
Nc1ncnc(Nc2ccc(F)cc2)n1	-11	0	-7	6	-8	i	0	1
Cc1ccnc(NS(=O)(=O)c2ccc(NC(=O)CCS(=O)(=O)c3ccccc3)cc2)n1	-1	8	-10	18	nt	i	3	6
N#CCCn1cnc2ccccc21	-8	0	5	nt	-7	i	2	8
CC1CC(C)CN(CC(O)COCc2ccccc2)C1 (configuration not stated)	21	7	-15	0	-5	i	-4	-2
COc1ccc(C2C(C#N)=C(N)Oc3cc(O)ccc32)cc1Cl (configuration not stated)	14	-3	11	-10	-16	i	-34	4
COc1ccc(-c2nsc3c(N4CCN(S(=O)(=O)c5ccccc5F)CC4)ncnc23)cc1	-6	-9	3	nt	-5	i	5	2
c1ccc(CN2CCN(c3nc(-c4ccccn4)nc4ccccc34)CC2)cc1	-2	12	2	nt	-12	i	7	2
COC(=O)c1nnn(-c2nonc2N)c1CSc1nc2ccccc2s1	-4	-11	-10	nt	-3	i	5	0
CCCCN(C)c1nc(-c2ccco2)c2c(c1C#N)CC(C)(C)OC2	12	18	?	4	-10	i	-6	8
CC(=O)c1ccc(N2CCN(C(=O)COc3ccc(F)cc3)CC2)c(F)c1	4	-6	6	nt	-6	i	4	-2
COCCN(Cc1ccco1)C(=O)Cn1ncc2c(=O)oc3ccccc3c21	11	7	-10	-8	nt	i	5	-1
CCOc1cc(/C=C2/C(=O)N(c3ccccc3)N=C2C)ccc1OC(=O)c1ccco1	5	-4	-1	4	-25	i	2	9
CC1CCCN(Cc2nc3c(c(=O)n(C)c(=O)n3C)n2CC(N)=O)C1 (configuration not stated)	-1	-5	-22	-21	-31	i	5	4
COc1ccc(NC2=C(NC(C)=O)C(=O)c3ccccc3C2=O)cc1	-15	-8	23	2	6	i	11	12
O=C(O)CCC(=O)Nc1ccc(NC(=O)c2ccc(Cl)cc2Cl)c(Cl)c1	-7	2	-13	7	nt	i	-2	5
CC(C)C[C@@H](CN=[N+]=[N-])N1CCN(C)CCC1=O	3	10	-5	14	6	i	4	1
O=C(O)/C=C/C(=O)c1ccc2c(c1)NC(=O)CO2	-2	-2	3	-4	nt	i	-1	5
O=C(Nc1ccc(O)cc1)C1CCCO1 (configuration not stated)	-13	-6	nt	2	-16	i	1	0
COc1ccccc1-c1c(-c2ccc(O)cc2O)n[nH]c1C(F)(F)F	-3	-9	1	93*	-11	i	-10	-24
CCOc1cc(/C=N/NC(=O)Cn2nc([N+](=O)[O-])cc2C)cc(Br)c1OCc1ccccc1F	-4	-8	nt	34	-7	i	1	-2
Cc1ccc(-c2ccc(SCC(=O)NC3CCCC3)nn2)cc1	6	3	1	-1	-10	i	2	-10
O=C(NC(=O)N1CCCCC1)c1ccccc1	-5	-10	-6	-3	nt	i	-2	0
O=C(COc1ccc(Cl)cc1)N(Cc1ccccc1)c1nc(-c2ccccc2)cs1	-1	12	20	-20	-7	i	-4	-3
O=C(Cc1ccccc1)N/N=C/c1cccs1	5	-7	-1	nt	nt	i	-4	1
O=C(CCC(=O)c1ccc(Cl)cc1)OCc1nc2ccsc2c(=O)[nH]1	nt	nt	-13	-10	-2	i	-2	0
O=C(CSc1nnc(-c2ccc(Cl)cc2)n1Cc1ccco1)c1cccs1	2	15	10	nt	nt	i	-3	1
CN1CCN(c2ccccc2NC(=O)c2cccs2)CC1	-2	-8	nt	-11	-5	i	0	2
Cn1c(=O)c2[nH]c(-c3ccc(S(=O)(=O)O)cc3)nc2n(C)c1=O	nt	nt	-11	18	-12	?	3	3
COc1ccc(CCN2C(=NC(=O)C(C)C)SC3CS(=O)(=O)CC32)cc1 (configuration not stated)	-4	-10	12	-27	-4	i	2	3
COc1ccccc1CNC(=O)C(CCSC)NC(=O)C1CCC(C)CC1 (configuration not stated)	-4	-6	4	9	-18	i	-4	-2
Cc1nc2scc(-c3cccs3)c2c(=O)n1-n1cccc1	-2	5	-7	nt	-8	i	-3	-3
O=S(=O)(c1ccc2nc(-c3ccccc3)[nH]c2c1)N1CCN(c2cccc(Cl)c2)CC1	29	-3	19	3	nt	i	5	-4
CCOC(=O)N1CCN(C(=O)CCS(=O)(=O)c2ccc3c(c2)CCN3C(=O)CC)CC1	10	-7	nt	5	1	i	-2	-1
COc1cc(OC)c2c(c1)C(=O)c1cc(OC)cc(OC)c1C2=O	46	64	-3	nt	-16	i	2	12	eIF4H FP inh retest=10;PABP polyA inh retest=45
COc1ccc(OCc2cc(C(=O)NCCc3ccccc3)no2)c(Cl)c1	-16	-9	56	-23	-6	i	-2	-6

Further entries:
SMILES	PABP polyA inh	eIF4H FP inh	CSC inhib	HIV Env fusion	UUG fidelity	Rce1 inhib	MT1-MMP act inh	MT1-MMP act inh RFP	others
O=C(CN1CCN(c2ccc(O)cc2)CC1)Nc1cc([N+](=O)[O-])ccc1Cl	-4	-5	5	-10	nt	i	1	0
COc1ccccc1N(C(=O)c1cncc(Br)c1)c1nc(-c2ccc(C)cc2)cs1	-1	-5	11	8	nt	nt	-6	-8
c1coc(-c2nnc(NC3=NCCC3)o2)c1	3	-2	-1	-52	-20	i	14	-3
N#CC(C#N)=C(Nc1ccc(F)cc1)SCc1cccc(Br)c1	-4	-9	119*	65*	-8	i	-47	-36
COc1ccccc1Nc1nnc(SCC2CCCCO2)s1 (configuration not stated)	-18	43	54	-161	nt	i	-5	-9
CNC(=O)c1c(NC(=O)c2ccc(N3C(=O)CCC3=O)cc2)sc2c1CCC(C)C2 (configuration not stated)	11	-2	-5	4	-21	i	-2	1
CCC(=O)Nc1sc2c(c1C#N)CCC2	7	10	-10	6	nt	i	2	4
CCN(C(=O)c1ccccc1)c1ccc([N+](=O)[O-])cc1	-2	2	nt	10	nt	i	6	4
COc1ccc(/C(O)=C2/C(=O)C(=O)N(CCCN(C)C)C2c2cccc(Cl)c2)cc1OC (configuration not stated)	1	8	-8	0	nt	i	6	9
O=C(CN1CCCN(S(=O)(=O)c2ccc(Br)s2)CC1)Nc1ccc(Cl)cc1	0	-13	9	?	-12	i	6	-7
CN=C(Nc1cc(C)nn1CCC#N)c1ccccc1F	1	7	-8	nt	5	nt	5	-2
COc1cc(/C=N/NC(=O)c2cncc(Br)c2)cc([N+](=O)[O-])c1O	2	8	11	11	-30	i	8	0
Cc1ccccc1-c1csc(C(O)c2cccc(Cl)c2)n1 (configuration not stated)	nt	nt	nt	-5	7	nt	1	-4
O=C(CNCc1cccc(Cl)c1)N1CCc2ccccc2C1	-9	2	-2	-83	-7	i	2	-1
Clc1ccc(-c2nc3ccccc3[nH]2)cn1	-2	-5	6	-25	nt	nt	0	1
Cc1cc(C(=O)N/N=C/c2cn(C)nc2C)c2ccccc2n1	-1	-7	-9	0	0	i	-1	-1
Cc1cc(C)n(-c2nc3nonc3nc2Nc2cccc(C)c2C)n1	?	?	-11	-12	-1	i	-17	-4
O=C(Cn1ncn2c(cc3ccccc32)c1=O)NCc1ccco1	11	16	-10	-32	nt	i	-2	-2
O=C(Cn1cnc([N+](=O)[O-])c1)c1ccc(F)cc1	nt	nt	-11	2	-17	i	-1	-1
Cc1nc2sccn2c(=O)c1CCN1CCC(=C(c2ccc(F)cc2)c2ccc(F)cc2)CC1	-4	-8	79*	7	0	i	-7	-9
CCN(CC)S(=O)(=O)c1ccc(OC)c(N)c1	-4	4	1	-14	-7	i	0	0
Cc1cccc2cc(CN(Cc3ccco3)C(c3nnnn3CCc3ccccc3)C(C)C)c(=O)[nH]c12 (configuration not stated)	4	-7	37	nt	-13	i	-18	-22

Source: PubChem
